# Vaccinia stage = blocks a specific stage of Vaccinia orthopoxvirus infection | activity change (mCherry), % (test concentration not listed) | Vaccinia-infected cells, mCherry/Venus stage reporter fluorescence; active compounds read low; some inactives read as strong as hits | actives 0.01% (n = 89,000);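 active = mCherry past -33% and 40 or more points under the early reporter, replicates agreeing; inconclusive = past -33% without that gap or agreement; tested in A549 cells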;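 note: scaled between vehicle wells and reference inhibitor wells; 23 nL library stock went into each well; one replicate is shown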
# Vaccinia stage Venus = second read-out of Vaccinia stage, no call of its own (marks repeat the call); activity change (Venus), %; measured here: Venus reporter, other viral stage;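 negative = less Venus signal; first of two replicates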
# Numbers without * were called inactive; ? = inconclusive; / = not tested or not shown. Not all compounds are listed; the hit share may differ from the screen's.
SMILES,Vaccinia stage,Vaccinia stage Venus
Cc1noc(C)c1NC(=O)Nc1ccc2c(c1)C(=O)N([C@@H](C)CO)C[C@@H](C)[C@@H](CN(C)C(=O)Cc1ccccc1)OCCCC[C@@H](C)O2,6.3,-0.2
CCCC(=O)Nc1ccc2c(c1)OC[C@H](C)N(C(=O)c1cccnc1)C[C@H](C)[C@@H](OC)CN(C)C2=O,-2.4,10.8
Cc1ccc(S(=O)(=O)N(C)C[C@@H]2Oc3ncc(C#CCC(C)C)cc3C(=O)N([C@H](C)CO)C[C@H]2C)cc1,?,-7.3
CCCNC(=O)N1CC2(CCN(S(=O)(=O)CC)CC2)c2c([nH]c3cc(OC)ccc23)[C@H]1CO,12.3,1.5
O=C(C[C@H]1C[C@@H]2c3cc(NS(=O)(=O)c4ccccc4)ccc3O[C@@H]2[C@@H](CO)O1)NC1CCCCC1,1.3,5.0
CO[C@H]1CN(C)C(=O)c2ccc(NC(=O)C3CC3)cc2OC[C@H](C)N(C(=O)c2cnccn2)C[C@H]1C,7.0,-1.3
C[C@H]1CN([C@@H](C)CO)C(=O)c2cccc(NC(=O)C3CCCCC3)c2O[C@@H]1CN(C)C(=O)Nc1cccc2ccccc12,4.8,6.8
O=C(C1CCOCC1)N1CC(=O)N2[C@H](CO)[C@@H](c3ccc(C#CC4CCCC4)cc3)[C@@H]2C1,-6.5,-5.4
COCC(=O)Nc1ccc2c(c1)C(=O)N(C)C[C@@H](OC)[C@@H](C)CN(Cc1ccncc1)[C@H](C)CO2,13.4,9.9
CC=Cc1ccc2n(c1=O)C[C@@H]1[C@@H](CO)[C@H](C(=O)NC3CCCC3)[C@H]2N1Cc1ccncc1 (mixture of isomers),5.0,4.6
C[C@@H]1CCCCO[C@H](CN(C)Cc2ccccc2)[C@@H](C)CN([C@H](C)CO)C(=O)c2cc(NC(=O)c3ccncc3)ccc2O1,5.1,-5.7
CO[C@H]1CN(C)C(=O)c2cc(NC(=O)C3CCCC3)ccc2OC[C@H](C)N(S(C)(=O)=O)C[C@H]1C,3.6,2.0
C[C@H](NC(=O)C[C@H]1C[C@H]2c3cc(NC(=O)NC4CCCCC4)ccc3O[C@H]2[C@H](CO)O1)c1ccccc1,2.4,0.7
C[C@H]1CN([C@@H](C)CO)C(=O)c2cc(-c3ccc(C#N)cc3)cnc2O[C@H]1CN(C)CC1CCOCC1,12.8,10.1
C[C@@H]1CN([C@@H](C)CO)C(=O)Cc2cc(NS(C)(=O)=O)ccc2O[C@H]1CN(C)C,4.1,-5.2
COc1cccc(NC(=O)N(C)C[C@@H]2Oc3cc(-c4ccccc4OC)ccc3S(=O)(=O)N([C@@H](C)CO)C[C@H]2C)c1,-12.5,-7.9
COc1ccc(NC(=O)N(C)C[C@@H]2Oc3c(NC(=O)c4cc(C)nn4C)cccc3C(=O)N([C@H](C)CO)C[C@H]2C)cc1,18.7,2.1
COCC(=O)N(C)C[C@H]1Oc2cc(-c3ccccc3F)ccc2S(=O)(=O)N([C@H](C)CO)C[C@@H]1C,-10.7,-7.9
C/C=C/c1ccc([C@H]2[C@H](CO)N(C(C)=O)C23CN(C(=O)c2ccncc2)C3)cc1,4.9,11.1
C[C@@H]1CN([C@@H](C)CO)C(=O)Cc2cc(NC(=O)CCN3CCOCC3)ccc2O[C@@H]1CN(C)CC1CC1,10.3,0.7
C[C@@H]1CN([C@@H](C)CO)C(=O)c2cc(-c3ccc(C(=O)N(C)C)cc3)cnc2O[C@@H]1CN(C)C(=O)C1CC1,12.8,8.8
Cc1ccc(S(=O)(=O)Nc2ccc3c(c2)CC(=O)N([C@H](C)CO)C[C@H](C)[C@@H](CN(C)S(=O)(=O)c2cccs2)O3)cc1,-0.3,-10.6
Cc1ccc(NC(=O)Nc2ccc3c(c2)C(=O)N(C)[C@@H]2CC[C@H](CC(=O)O)O[C@H]2CO3)cc1,2.8,4.2
COC(=O)N(C)C[C@H]1OCc2cn(nn2)CCCC(=O)N([C@@H](C)CO)C[C@@H]1C,1.3,-2.7
C[C@H]1CN([C@@H](C)CO)S(=O)(=O)c2ccc(C#Cc3ccccn3)cc2O[C@H]1CN(C)CC1CC1,4.0,3.4

# Shown tab-delimited: part of the list above.
Structure	Vaccinia stage	Vaccinia stage Venus
CO[C@H]1CN(C)C(=O)c2cc(NC(=O)C3CCCC3)ccc2OC[C@H](C)N(S(C)(=O)=O)C[C@H]1C	3.6	2.0
COc1cccc(NC(=O)N(C)C[C@@H]2Oc3cc(-c4ccccc4OC)ccc3S(=O)(=O)N([C@@H](C)CO)C[C@H]2C)c1	-12.5	-7.9
C[C@@H]1CN([C@@H](C)CO)C(=O)Cc2cc(NC(=O)CCN3CCOCC3)ccc2O[C@@H]1CN(C)CC1CC1	10.3	0.7
COCC(=O)N(C)C[C@H]1Oc2cc(-c3ccccc3F)ccc2S(=O)(=O)N([C@H](C)CO)C[C@@H]1C	-10.7	-7.9
COc1ccc(NC(=O)N(C)C[C@@H]2Oc3c(NC(=O)c4cc(C)nn4C)cccc3C(=O)N([C@H](C)CO)C[C@H]2C)cc1	18.7	2.1
COC(=O)N(C)C[C@H]1OCc2cn(nn2)CCCC(=O)N([C@@H](C)CO)C[C@@H]1C	1.3	-2.7
Cc1ccc(S(=O)(=O)N(C)C[C@@H]2Oc3ncc(C#CCC(C)C)cc3C(=O)N([C@H](C)CO)C[C@H]2C)cc1	?	-7.3

# Next records
SMILES,Vaccinia stage,Vaccinia stage Venus
O=C(C[C@@H]1CC[C@H]2[C@@H](COC[C@@H](O)CN2C(=O)Nc2ccc(Cl)cc2)O1)NCCc1ccncc1,-12.9,-8.3
O=C(c1cnccn1)N1CC(=O)N2[C@H](C1)[C@@H](c1ccc(C#CC3CCCCC3)cc1)[C@@H]2CO,?,/
C[C@@H](O)C#Cc1cnc2c(c1)C(=O)N([C@@H](C)CO)C[C@H](C)[C@H](CN(C)C(=O)CN1CCOCC1)O2,7.9,6.6
CC(C)NC(=O)N1C[C@H]2[C@@H](c3ccccc31)[C@@H](CO)N2C(=O)c1ccc(F)cc1,-1.8,-1.0
CN(C)C(=O)C[C@@H]1CC[C@@H]2[C@H](COC[C@H](O)CN2Cc2nccs2)O1,19.9,16.9
CNC[C@H]1Oc2c(N)cccc2C(=O)N([C@H](C)CO)C[C@@H]1C,19.7,20.0
C[C@@H]1CN([C@@H](C)CO)C(=O)c2cc(NC(=O)Nc3ccc(C(F)(F)F)cc3)ccc2O[C@H]1CN(C)C(=O)Nc1ccc(F)cc1,-9.0,-6.8
C[C@@H]1CN([C@H](C)CO)C(=O)c2cccc(NC(=O)NC3CCCCC3)c2O[C@H]1CN(C)S(=O)(=O)c1ccc(F)cc1,-9.8,-3.2
C[C@H](CO)N1C[C@H](C)[C@H](CN(C)Cc2ccccc2)Oc2ncc(C#CCc3ccccc3)cc2C1=O,-17.8,-10.7
O=C(C[C@H]1C[C@H]2c3cc(NC(=O)NC4CCCC4)ccc3O[C@H]2[C@H](CO)O1)NCc1ccccc1,3.7,1.1
O=C(Cc1cccnc1)N1CC(=O)N2[C@H](CO)[C@@H](c3ccc(C4=CCCCC4)cc3)[C@H]2C1,-20.1,1.9
CCC(=O)N(C)C[C@H]1Oc2ncc(-c3ccc(C)cc3)cc2C(=O)N([C@H](C)CO)C[C@H]1C,3.0,9.6
C[C@H]1CN([C@@H](C)CO)C(=O)c2cc(NS(=O)(=O)c3ccc(Cl)cc3)ccc2O[C@@H]1CN(C)C(=O)Nc1ccc(F)cc1,17.4,2.7
C[C@@H]1CCCCO[C@H](CN(C)S(=O)(=O)c2ccc(Cl)cc2)[C@@H](C)CN([C@@H](C)CO)C(=O)c2cc(NC(=O)CCC(F)(F)F)ccc2O1,?,/
CC(C)C#Cc1ccc([C@@H]2[C@@H](CO)N3CCCCN(CC4CC4)C[C@H]23)cc1,-13.9,-14.9
C[C@H](CO)N1C[C@H](C)[C@@H](CN(C)C(=O)Nc2ccccc2)Oc2ccc(NC(=O)NC3CCCCC3)cc2CC1=O,16.3,14.7
CCC(=O)Nc1ccc2c(c1)OC[C@@H](C)N(C(=O)CC1CC1)C[C@@H](C)[C@H](OC)CN(C)C2=O,-7.9,-6.4
OC[C@@H]1[C@@H](c2ccccc2)C2(CN(CCC(F)(F)F)C2)N1Cc1cccnc1,8.4,4.3
C[C@H](CO)N1C[C@H](C)[C@@H](CN(C)Cc2ccncc2)OCc2ccccc2-c2c(n(C)c3ccccc23)C1=O,-7.7,-1.8
COCC#Cc1ccc([C@@H]2[C@H]3CN(Cc4ccccc4F)CCCCN3[C@H]2CO)cc1,-7.6,-5.6
Cc1noc(C)c1NC(=O)Nc1ccc2c(c1)C(=O)N([C@@H](C)CO)C[C@H](C)[C@H](CN(C)S(=O)(=O)c1cccs1)OCCCC[C@@H](C)O2,17.3,4.6
C[C@@H]1CN([C@H](C)CO)C(=O)c2cc(-c3ccccc3)cnc2O[C@@H]1CN(C)Cc1cccnc1,12.0,3.2
O=C(NC1CCCC1)[C@H]1[C@H](CO)[C@H]2Cn3c(ccc(-c4ccccc4F)c3=O)[C@@H]1N2C(=O)CC1CC1,-2.6,5.2
O=C(C1CCC1)N1CCCCN2[C@H](C1)[C@@H](c1ccc(C#CC3CCCC3)cc1)[C@@H]2CO,?,/
O=C(NCC[C@H]1CC[C@H](NS(=O)(=O)Cc2ccccc2)[C@H](CO)O1)C1CCCCC1,1.3,3.2
SMILES,Vaccinia stage,Vaccinia stage Venus
CCc1csc(N2[C@H](C#N)[C@H](c3ccc(-c4cccc(F)c4)cc3)[C@H]2CO)n1,12.5,4.6
C[C@H]1CCCCO[C@H](CN(C)Cc2ccccc2)[C@@H](C)CN([C@@H](C)CO)C(=O)c2cc(NC(=O)NC3CCCCC3)ccc2O1,?,/
O=C(Nc1ccccc1F)N[C@H]1CC[C@H](CCNC(=O)C2CCOCC2)O[C@H]1CO,8.3,1.4
C/C=C/c1ccc(C2[C@@H]3CN(C(=O)C4CC4)C[C@H]2N3)cc1 (stereo partly drawn),?,-0.2
C[C@H]1CN([C@@H](C)CO)C(=O)c2cccc(NC(=O)c3ccc(-c4nccs4)cc3)c2O[C@H]1CN(C)CC1CC1,-8.7,-3.7
C/C=C/c1ccc2c(c1)O[C@@H](CN(C)C(=O)c1cccc(F)c1)[C@H](C)CN([C@@H](C)CO)S2(=O)=O,-15.2,-19.0
C[C@@H]1CCCCO[C@H](CN(C)C(=O)Cc2ccccc2)[C@H](C)CN([C@@H](C)CO)C(=O)c2cc(NC(=O)Nc3ccc(C(F)(F)F)cc3)ccc2O1,-30.7,-11.0
C[C@@H]1CN([C@@H](C)CO)C(=O)c2cccc(NC(=O)C3CCOCC3)c2O[C@@H]1CN(C)Cc1ccc(Cl)c(Cl)c1,?,/
C[C@H](NC(=O)C[C@H]1C[C@H]2c3cc(NC(=O)Cc4ccncc4)ccc3O[C@H]2[C@H](CO)O1)c1ccccc1,-5.1,-7.8
C[C@@H]1CCCCO[C@H](CN(C)S(=O)(=O)c2cccs2)[C@H](C)CN([C@@H](C)CO)C(=O)c2cc(NC(=O)Nc3ccc(C(F)(F)F)cc3)ccc2O1,-10.9,0.8
O=C(NCCc1ccncc1)[C@H]1[C@H](CO)[C@H]2Cn3c(ccc(-c4cccnc4)c3=O)[C@H]2N1C(=O)C1CC1,2.1,4.3
Cc1ccc(S(=O)(=O)Nc2ccc3c(c2)CC(=O)N([C@@H](C)CO)C[C@H](C)[C@@H](CN(C)C(=O)Nc2ccccc2)O3)cc1,9.2,2.8
COCC(=O)Nc1ccc2c(c1)C(=O)N(C)[C@@H]1CC[C@H](CC(=O)NC3Cc4ccccc4C3)O[C@@H]1CO2,4.5,10.4
O=C(C1CC1)N1CC(=O)N2[C@@H](CO)[C@@H](c3ccc(C#CC4CCCC4)cc3)[C@@H]2C1,-2.4,0.6
COc1ccc(CN(C)C[C@H]2Oc3ccc(NC(=O)C4CC4)cc3C(=O)N([C@@H](C)CO)C[C@H]2C)cc1,3.1,-2.8
C[C@H]1CCCCO[C@H](CN(C)C(=O)Nc2ccccc2)[C@@H](C)CN([C@@H](C)CO)C(=O)c2cc(NS(=O)(=O)c3ccccc3)ccc2O1,?,/
C[C@H](O)C#Cc1cnc2c(c1)C(=O)N([C@H](C)CO)C[C@H](C)[C@H](CN(C)C(=O)Cc1ccncc1)O2,21.0,-5.0
C[C@@H]1CN([C@H](C)CO)C(=O)c2cc(N(C)C)ccc2O[C@@H]1CN(C)C,23.4,22.4
CN1[C@H](CO)[C@@H]2c3ccccc3N(C(=O)c3ccc(F)cc3)C[C@@H]21,8.9,14.8
CO[C@@H](CN(C)Cc1ccc2c(c1)OCO2)[C@H](C)CN(C(=O)c1ccccc1)[C@@H](C)CO,23.9,16.6
C[C@H]1CN([C@@H](C)CO)C(=O)Cc2cc(NC(=O)Nc3ccccc3)ccc2O[C@@H]1CN(C)C(=O)Nc1ccccc1,10.9,5.9
C[C@H](CO)N1C[C@H](C)[C@@H](CN(C)Cc2ccc(C(F)(F)F)cc2)Oc2c(NS(=O)(=O)c3ccc(Cl)cc3)cccc2C1=O,-22.8,-25.3
COCC#Cc1cnc2c(c1)C(=O)N([C@@H](C)CO)C[C@H](C)[C@H](CN(C)S(=O)(=O)c1cn(C)cn1)O2,16.2,8.5
Cc1noc(C)c1NC(=O)Nc1ccc2c(c1)C(=O)N([C@H](C)CO)C[C@@H](C)[C@@H](CN(C)Cc1ccncc1)OCCCC[C@@H](C)O2,10.9,6.2
C/C=C/c1ccc([C@H]2[C@@H](CO)N(C(=O)CN(C)C)C23CN(C(=O)C2CCCC2)C3)cc1,-12.3,-4.0
Cc1noc(C)c1NC(=O)N[C@H]1CC[C@@H](CC(=O)NCc2ccc(Cl)c(Cl)c2)O[C@H]1CO,1.5,11.4
O=C(Cc1ccccc1)N1CC[C@@H]2[C@H](CO)Nc3ccc(-c4cccc(F)c4)cc3[C@@H]21,-15.4,4.0
CN(C)CC(=O)N[C@H]1CC[C@@H](CC(=O)NCc2ccc(Cl)cc2)O[C@H]1CO,15.1,12.7
COc1ccc(NC(=O)N(C)C[C@@H]2Oc3c(NS(=O)(=O)c4c(C)noc4C)cccc3C(=O)N([C@@H](C)CO)C[C@@H]2C)cc1,16.5,10.2
